A1 inh – A1 inhibition. AID 2241. 0.51% of 21,000 active. caspase activation, % (test concentration not listed). MEF A1-2A-BIM cells, caspase-Glo luminescence, 3 h; percent of clofoctol signal, DMSO as zero;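 active = most replicate scores above 10, or exactly half above 10 with mean activity above 10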;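 note: effector caspase 3 and 7 activity cleaving a DEVD luciferin substrate; 50 nL library stock added to about 30 µL; numbers are from one replicate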
BJeLR viability – lowers viability of BJeLR cells; BJeLR fibroblasts viability, CellTiterGlo ATP luminescence, 48 h; HRASV12, hTERT and SV40 LT/ST transformed; 0.64% of 30,000 active; viability loss activity score, % (concentration not given with the values); in the data active = viability loss activity score above about 50%; about a fifth of its hits are not listed in these tables;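 note: higher score means fewer live cells and less ATP luminescence; stock transfer was 50 or 100 nL into about 30 µL; 0% = vehicle wells and 100% = a reference killing control; one replicate is shown; the record names a cut of 85%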
Starred values were filed as active, the others as inactive; / = no result given. This is a subset; the hit share may differ from the screen's.

structure | A1 inh | BJeLR viability
C[C@@H]1CN([C@H](C)CO)C(=O)c2cccc(NS(=O)(=O)c3ccc(Cl)cc3)c2O[C@@H]1CN(C)C(=O)Nc1ccc2c(c1)OCO2 | / | -3.9
C[C@@H]1CN([C@H](C)CO)C(=O)c2cc(NC(=O)Nc3ccc(F)cc3)ccc2O[C@@H]1CN(C)C(=O)NC1CCCCC1 | 0.4 | 2.0
C[C@H](CO)N1C[C@H](C)[C@@H](CN(C)C(=O)Nc2cccc3ccccc23)Oc2ccc(NC(=O)Nc3ccc4c(c3)OCO4)cc2C1=O | 0.6 | 0.0
COc1ccc2c(c1)CCC1C2CC[C@@]2(C)C1CC[C@@H]2O (some centres undefined) | -0.5 | -2.5
COc1ccc(Br)cc1/C=C/C(=O)O | -0.6 | 1.6
C[C@H](CO)N1C[C@H](C)[C@H](CN(C)C(=O)Nc2ccc3c(c2)OCO3)Oc2c(NC(=O)NC3CCCCC3)cccc2C1=O | / | 2.9
C[C@H]1CN([C@@H](C)CO)C(=O)c2cc(NC(=O)NC3CCCCC3)ccc2O[C@H]1CN(C)Cc1ccncc1 | 0.8 | 4.1
CN(Cc1ccccc1)C(=O)CSc1nc2c(c(C(F)(F)F)n1)CCc1ccccc1-2 | -0.3 | -1.3
C[C@H]1CN([C@@H](C)CO)C(=O)c2cc(NC(=O)Cn3cnnn3)ccc2O[C@H]1CN(C)Cc1ccc(C(=O)O)cc1 | -0.2 | -1.0
Cc1noc(C)c1NC(=O)Nc1cccc2c1O[C@H](CN(C)C(=O)Nc1ccc(F)cc1)[C@@H](C)CN([C@H](C)CO)C2=O | / | -2.9
Nc1ccccc1C(=O)NC1CCCCNC1=O (centres undefined) | 0.4 | 7.2
Cc1noc(C)c1NC(=O)Nc1ccc2c(c1)C(=O)N([C@@H](C)CO)C[C@H](C)[C@@H](CN(C)C(=O)Nc1ccc(F)cc1)O2 | 0.5 | 2.5
Cc1ccc(S(=O)(=O)N(C)C[C@@H]2Oc3ccc(NS(=O)(=O)c4cccs4)cc3C(=O)N([C@@H](C)CO)C[C@@H]2C)cc1 | 0.5 | -1.2
COc1ccc(NC(=O)Nc2ccc3c(c2)C(=O)N([C@@H](C)CO)C[C@H](C)[C@H](CN(C)S(=O)(=O)c2cn(C)cn2)O3)cc1 | 1.1 | -0.5
C[C@H](CO)N1C[C@H](C)[C@H](CN(C)Cc2ccc(Cl)c(Cl)c2)Oc2ccc(NS(=O)(=O)c3ccc(F)cc3)cc2C1=O | -0.4 | 1.3
CCOC(=O)c1ncn2c1CN(C)C(=O)c1cc(F)ccc1-2 | -0.2 | 2.8
Cc1noc(C)c1NC(=O)Nc1cccc2c1O[C@H](CN(C)S(=O)(=O)c1ccc(Cl)cc1)[C@@H](C)CN([C@@H](C)CO)C2=O | / | -1.3
O=c1c(-c2ccc(O)cc2O)coc2cc(O)cc(O)c12 | -0.8 | -1.8
Cc1noc(C)c1S(=O)(=O)Nc1ccc2c(c1)C(=O)N([C@@H](C)CO)C[C@@H](C)[C@@H](CN(C)S(=O)(=O)c1ccc(Cl)cc1)O2 | 0.1 | -2.0
CC(NC(=O)CCCn1c(=O)[nH]c2ccsc2c1=O)C12CC3CC(CC(C3)C1)C2 (centres undefined) | / | -2.8
C[C@@H]1CN([C@@H](C)CO)C(=O)c2cccc(NS(=O)(=O)c3ccccc3)c2O[C@H]1CN(C)Cc1ccc(Cl)c(Cl)c1 | / | 0.3
C[C@H]1CN([C@@H](C)CO)C(=O)c2cccc(NC(=O)C3CC3)c2O[C@@H]1CN(C)CC1CCCCC1 | / | -11
Cc1cc(C(=O)Nc2cccc3c2O[C@@H](CN(C)S(=O)(=O)c2c(C)noc2C)[C@@H](C)CN([C@H](C)CO)C3=O)n(C)n1 | / | -0.5
Cc1cc2nc(NC3=NC(O)C=C(CSc4nc5ccccc5[nH]4)N3)nc(C)c2cc1C (centres undefined) | 0.5 | 3.9
CCc1ccc(Nc2c3c(nc4ccccc24)CCC3)cc1 | / | 13
COC(=O)c1c(C)nc(C)c(C(=O)OC)c1-c1csc(S(=O)(=O)/N=C/N(C)C)c1 | 0.1 | 1.5
CC(C)NC(=O)Nc1cccc2c1O[C@H](CN(C)Cc1ccc(C(F)(F)F)cc1)[C@H](C)CN([C@@H](C)CO)C2=O | / | 0.1
Cc1cc2c(c(Sc3ccccc3)n1)C(=O)OC2 | -0.7 | 0.5
C[C@@H]1CN([C@@H](C)CO)C(=O)c2cccc(NC(=O)Nc3ccc4c(c3)OCO4)c2O[C@H]1CN(C)Cc1ccc2c(c1)OCO2 | / | -6.5
NS(=O)(=O)c1ccc(N2C(=O)C3CC=CCC3C2=O)cc1 (centres undefined) | -0.4 | -1.8
C[C@H]1CN([C@@H](C)CO)C(=O)c2cccc(NS(=O)(=O)c3ccccc3)c2O[C@@H]1CN(C)Cc1ccc(-c2ccccc2)cc1 | / | 0.5
C[C@H](CO)N1C[C@H](C)[C@H](CN(C)Cc2ccccc2)Oc2c(NC(=O)Nc3ccc4c(c3)OCO4)cccc2C1=O | / | -0.6
COc1ccc2c(c1)c(C(=O)ON1C(=O)CCC1=O)c(C)n2C1CC1 | 0.7 | -1.3
COc1ccc2c(Sc3ccc(C)cc3)c(C(=O)NCCc3ccc(OC)c(OC)c3)[nH]c2c1 | -1.5 | 0.5
COc1cc(CN2CCCC(C(=O)N3CCCCCC3)C2)ccc1OCc1ccccc1 (centres undefined) | 0.3 | 3.3
COc1ccc(S(=O)(=O)Nc2cccc3c2O[C@@H](CN(C)S(=O)(=O)c2ccc(OC)cc2)[C@H](C)CN([C@@H](C)CO)C3=O)cc1 | / | -2.7
O=C(CCNS(=O)(=O)c1cccc2nsnc12)NC1CCCC1 | / | -6.0
COc1ccc(S(=O)(=O)Nc2cccc3c2O[C@H](CN(C)S(=O)(=O)c2cn(C)cn2)[C@@H](C)CN([C@H](C)CO)C3=O)cc1 | / | 5.4
CCOC(=O)c1nc(C)sc1-c1ccnn1S(=O)(=O)c1ccccc1C(F)(F)F | -0.3 | 6.6
NC(=O)CSc1ccc(-c2ccncc2)nn1 | 0.8 | 6.4
C[C@H]1CN([C@@H](C)CO)C(=O)c2cccc(NS(=O)(=O)c3ccccc3)c2O[C@H]1CN(C)Cc1ccc(Cl)c(Cl)c1 | / | 1.7
C[C@@H]1CN([C@@H](C)CO)C(=O)c2cc(NC(=O)C3CC3)ccc2O[C@H]1CN(C)Cc1ccc(C(F)(F)F)cc1 | 0.4 | -1.6
COc1ccc(NC(=O)N(C)C[C@H]2Oc3ccc(NS(=O)(=O)c4ccc(Cl)cc4)cc3C(=O)N([C@H](C)CO)C[C@H]2C)cc1 | -0.7 | 1.8
CC1CC(C)CN(S(=O)(=O)c2ccc(Cl)cc2)C1 (centres undefined) | -0.2 | 0.6
COc1ccc2[nH]c(C(=O)N3CCC(Cc4ccccc4)CC3)cc2c1 | 0.5 | 3.4
C[C@H]1CN([C@@H](C)CO)C(=O)c2cc(NS(=O)(=O)c3ccccc3)ccc2O[C@H]1CN(C)C(=O)Nc1ccc(F)cc1 | 1.0 | 0.8
O=C1CC(c2ccccc2)n2nc(NC(=O)c3ccco3)nc2N1 (centres undefined) | 0.9 | 2.1
C[C@H](CO)N1C[C@H](C)[C@@H](CN(C)Cc2ccc(C(=O)Nc3ccccc3N)cc2)Oc2ccc(NC(=O)Nc3ccc(C(F)(F)F)cc3)cc2C1=O | / | 21
O=C(Nc1ccccc1)Nc1sccc1-c1nc2ccccc2s1 | -0.4 | -9.2
C[C@H](CO)N1C[C@H](C)[C@H](CN(C)Cc2ccc(Oc3ccccc3)cc2)Oc2c(NS(=O)(=O)c3cn(C)cn3)cccc2C1=O | / | 7.2
CC(NCCc1ccc(O)cc1)C(O)c1ccc(O)cc1 (centres undefined) | -0.5 | 0.8
C[C@@H]1CN([C@@H](C)CO)C(=O)c2cc(NS(=O)(=O)c3cn(C)cn3)ccc2O[C@H]1CN(C)C(=O)Nc1ccc(F)cc1 | 1.4 | 3.5
Cc1nnc(SCc2ccc(F)cc2Cl)c2cc3occc3n12 | 1.0 | -2.9
O=C1CCC(=O)N1CNc1cccc(Cl)c1 | 0.4 | 4.4
Cc1[nH]c2ccccc2c1C(O)c1cccnc1 (centres undefined) | 1.2 | -2.0
COc1ccc(-c2nnsc2N2C(=O)c3ccccc3C2=O)cc1 | -0.3 | -11

Profiles, quoted from the list. Order of screens: A1 inh | BJeLR viability
COc1ccc(-c2nnsc2N2C(=O)c3ccccc3C2=O)cc1 across the screens: -0.3 | -11
Cc1[nH]c2ccccc2c1C(O)c1cccnc1 (centres undefined) across the screens: 1.2 | -2.0
Cc1nnc(SCc2ccc(F)cc2Cl)c2cc3occc3n12 across the screens: 1.0 | -2.9

Continuation.
molecule | A1 inh | BJeLR viability
Cc1cccc(NC(=O)c2cccc(Cn3nc(C)c(Cl)c3C)c2)c1C | -0.6 | 20
Cc1noc(C)c1NC(=O)N(C)C[C@@H]1Oc2ccc(NS(=O)(=O)c3ccc(Cl)cc3)cc2C(=O)N([C@H](C)CO)C[C@@H]1C | 0.6 | 7.5
CC(=O)N1c2ccccc2C(=O)C1Sc1nc(C)cc(-c2ccccc2)n1 (centres undefined) | 1.1 | 5.0
NNC(=O)CN1C(c2ccc(Cl)cc2)=Nc2ccc(Cl)cc2C1c1ccccc1 (centres undefined) | 0.6 | 4.5
C[C@@H]1CN([C@H](C)CO)C(=O)c2cc(NS(C)(=O)=O)ccc2O[C@@H]1CN(C)Cc1ccccc1 | -0.9 | 1.3
CC(=O)OCC(=O)[C@@]12OC3(CCCC3)O[C@@H]1CC1C3CCC4=CC(=O)C=C[C@]4(C)[C@@]3(F)[C@@H](O)C[C@@]12C (some centres undefined) | 0.4 | -8.5
C[C@H](CO)N1C[C@H](C)[C@@H](CN(C)C(=O)NC2CCCCC2)Oc2ccc(NC(=O)Nc3cccc4ccccc34)cc2C1=O | -0.2 | -0.3
C[C@@H]1CN([C@@H](C)CO)C(=O)c2cccc(N(C)C)c2O[C@@H]1CN(C)C(=O)NC1CCCCC1 | / | -3.3
O=C1CCCC2=C1C(c1ccc(Cl)cc1)c1c(ccc3ccccc13)N2 (centres undefined) | / | 1.1
O=C(CSCc1cnn(-c2ccccc2)c1-n1cccc1)Nc1ccccc1Br | 0.5 | 2.3
C[C@@H]1CN([C@@H](C)CO)C(=O)c2cccc(NC(=O)NC3CCCCC3)c2O[C@@H]1CN(C)C(=O)Nc1cccc2ccccc12 | / | -2.2
COc1ccc(-c2cn3cccnc3n2)cc1NC(=O)C(C)C | / | -1.0
Cc1ccc(S(=O)(=O)N(C)C[C@@H]2Oc3c(NC(=O)c4cnccn4)cccc3C(=O)N([C@@H](C)CO)C[C@H]2C)cc1 | / | 1.1
CCN(Cc1ccccc1)C(=O)Cn1cc2c(n1)-c1c(oc(C(=O)N3CCCC3)c1C)CC2 | -0.1 | 1.6
Cc1noc(C)c1NC(=O)N(C)C[C@@H]1Oc2ccc(NS(=O)(=O)c3ccc(F)cc3)cc2C(=O)N([C@H](C)CO)C[C@@H]1C | 0.5 | 1.3
Cn1cc(C(=O)NCc2cccs2)c(=O)c2cc(S(=O)(=O)N3CCOCC3)ccc21 | / | 2.9
Cc1noc(C)c1NC(=O)N(C)C[C@@H]1Oc2ccc(NC(=O)c3ccncc3)cc2C(=O)N([C@H](C)CO)C[C@H]1C | 0.3 | 3.3
C[C@@H]1CN([C@H](C)CO)C(=O)c2cccc(NC(=O)C3CC3)c2O[C@H]1CN(C)S(=O)(=O)c1cn(C)cn1 | / | 2.7
Cc1ccc(S(=O)(=O)N(C)C[C@@H]2Oc3c(NC(=O)Nc4c(C)noc4C)cccc3C(=O)N([C@H](C)CO)C[C@H]2C)cc1 | / | -0.3
C[C@H](CO)N1C[C@H](C)[C@@H](CN(C)CC2CCCCC2)Oc2ccc(NC(=O)NC3CCCCC3)cc2C1=O | -0.1 | -0.3
CCOC(=O)Cn1c(C)c(Sc2ccccc2)c2ccccc21 | 0.2 | -2.0
O=C1CCN(S(=O)(=O)c2cccc(S(=O)(=O)c3ccc(Cl)cc3)c2)C2CCCCC12 (centres undefined) | 1.0 | -0.1
C[C@@H]1CN([C@@H](C)CO)C(=O)c2cc(NC(=O)Cn3cnnn3)ccc2O[C@H]1CN(C)Cc1ccc(Cl)c(Cl)c1 | 0.0 | 1.3
COc1ccc(S(=O)(=O)Nc2cccc3c2O[C@H](CN(C)Cc2ccc(C(=O)O)cc2)[C@@H](C)CN([C@H](C)CO)C3=O)cc1 | / | -4.7
Cc1oc2ccccc2c1CNC(N)=O | -0.3 | -7.2
O=C1CC(c2ccccc2)=NN1 | 0.0 | -0.7
COc1c(Cc2ccccc2O)c(O)c(Cc2ccccc2O)c(O)c1C(=O)CCc1ccccc1 | -0.6 | 5.9
COc1ccc(S(=O)(=O)N(C)C[C@H]2Oc3c(NC(=O)Nc4ccc(C(F)(F)F)cc4)cccc3C(=O)N([C@@H](C)CO)C[C@H]2C)cc1 | / | -1.7

A draw from above in order of heavy-atom count, rising.
molecule | A1 inh | BJeLR viability
O=C1CCN(S(=O)(=O)c2cccc(S(=O)(=O)c3ccc(Cl)cc3)c2)C2CCCCC12 (centres undefined) | 1.0 | -0.1
CN(Cc1ccccc1)C(=O)CSc1nc2c(c(C(F)(F)F)n1)CCc1ccccc1-2 | -0.3 | -1.3
CC(C)NC(=O)Nc1cccc2c1O[C@H](CN(C)Cc1ccc(C(F)(F)F)cc1)[C@H](C)CN([C@@H](C)CO)C2=O | / | 0.1
C[C@@H]1CN([C@@H](C)CO)C(=O)c2cccc(NS(=O)(=O)c3ccccc3)c2O[C@H]1CN(C)Cc1ccc(Cl)c(Cl)c1 | / | 0.3

High-throughput results from PubChem.
